# Compound activity: PubChem, several laboratories
# Beta cell apopt = blocks beta cell apoptosis | INS-1E cytokine-induced death, ATP luminescence, 48 h; percent of positive-control rescue, neutral wells zero | protection from apoptosis, % (concentration not given with the values) | 300,000 compounds, 0.8% hits | AID 435005;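 active = all replicates at 75% or more, or half of them and the mean; inconclusive = half reach 75% but not the mean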;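 note: 0% = cytokine-treated negative control wells and 100% = positive control rescue; higher means more ATP so stronger rescue from cytokine killing; wells of about 40 µL received 100 nL stock; the first replicate is given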
# RanGTP-Impb inh = disruptors of Ran-importin-beta complex formation – biochemical, FRET, CFP-Ran, YFP-importin-beta, homogeneous, primary screen; cell-free CFP-Ran/YFP-importin-beta FRET ratio; inhibition, % (test concentration not listed); 300,000 compounds, 1.1% hits;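 active = most replicates above 15%; inconclusive = exactly half above 15%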;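 note: 0% = DMSO wells and 100% = Ran loaded with GDP instead of GTP; wells of about 40 µL received 100 nL stock; the first replicate is given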
# AF4-AF9 inh = inhibitors of human MLL-AF4/AF9 interaction. P42568. AlphaScreen, biotin-AF4 peptide binding to FLAG-AF9. inhibition, % at 10 µM. 350,000 compounds, 0.47% hits. AID 651704;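 active = every replicate reaching a set inhibition limit, whatever the replicate mean, cut at about 25% in these data; inconclusive = mean inhibition reaches that limit but some replicates miss it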;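 note: 0% = plate neutral control median and 100% = total signal loss; the record names both 10 and 1 µM as test concentration; the first replicate is given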
# Target sequence (P42568 whole entry, looked up): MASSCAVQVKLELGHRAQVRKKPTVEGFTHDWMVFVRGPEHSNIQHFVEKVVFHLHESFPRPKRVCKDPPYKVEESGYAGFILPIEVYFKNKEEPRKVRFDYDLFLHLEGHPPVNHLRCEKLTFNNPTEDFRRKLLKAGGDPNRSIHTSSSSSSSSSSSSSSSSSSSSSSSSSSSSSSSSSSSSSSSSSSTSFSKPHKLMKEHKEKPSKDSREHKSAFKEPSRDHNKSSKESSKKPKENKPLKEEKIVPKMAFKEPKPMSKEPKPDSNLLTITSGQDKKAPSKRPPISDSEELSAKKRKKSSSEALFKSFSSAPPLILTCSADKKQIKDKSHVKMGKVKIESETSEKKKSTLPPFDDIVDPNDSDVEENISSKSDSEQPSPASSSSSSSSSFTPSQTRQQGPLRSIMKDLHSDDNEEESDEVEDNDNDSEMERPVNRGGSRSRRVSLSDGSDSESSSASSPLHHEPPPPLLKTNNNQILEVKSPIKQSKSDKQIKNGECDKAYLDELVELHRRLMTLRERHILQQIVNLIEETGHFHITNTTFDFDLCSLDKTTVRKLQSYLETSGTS
# Vif A3G = inhibitors of Vif binding to APOBEC3G peptide, primary screen, biochemical, TR-FRET, GST-Vif 1-94, biotin-A3G peptide, dose response retest (AID 1117319). TR-FRET GST-Vif / biotin-A3G peptide binding; higher % means a stronger effect; test concentration not given here; strong numbers were not always called active. 260,000 compounds, 0.57% hits. inhibition, %, or IC50 in µM where a hit was titrated;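 active = above the screen mean plus three standard deviations and confirmed in dose response; inconclusive = results disagree or hit not tested in dose response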;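 note: Vif residues 1-94 fused to GST binding biotinylated APOBEC3G peptide 110-148; 0% = full assay without inhibitor and 100% = GST in place of GST-Vif; retest series ran down from 100 µM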
# Bfl-1 A1 inh = inhibitors of the anti-apoptotic protein A1, read as caspase activation; 330,000 compounds, 0.066% hits; caspase activation, % (concentration not given with the values); MEF A1-2A-BIM cells, Caspase-Glo 3/7 luminescence, 3 h; percent of clofoctol response, vehicle zero; AID 2462;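 active = over half of replicate activation scores above 10%, or exactly half above 10 with the replicate mean above 10; inconclusive = replicate mean below 10 yet half the replicates above 10; inactive = over half of replicates below 10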;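 note: wells of about 30 µL received 50 nL stock; many hits fall short of the cut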
# T cruzi inh = blocks replication of Trypanosoma cruzi | inhibition, % (concentration not given with the values) | 300,000 compounds, 1.4% hits | AID 1885 | T. cruzi beta-gal in NIH3T3, luminescence, 90 h;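 active = mean inhibition across valid replicates above about 55%, limit read from the data; inconclusive = mean below that limit but half or more replicates reach it; inactive = mean below it, under half of replicates reach it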;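 note: signal also drops with host cell toxicity which is not excluded here; 0% = plate median of DMSO wells and 100% = zero luminescence signal; higher percent means less beta-gal luminescence so fewer parasites; stock transfer was 50 nL into about 50 µL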
# Calb FLC = affects C. albicans growth with fluconazole | 300,000 compounds, 0.57% hits | growth inhibition, % (test concentration not listed) | C. albicans CaCi-2 (fluconazole-resistant clinical isolate) + fluconazole, Alamar Blue growth, 48 h;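 active = most replicates above 75%; inconclusive = exactly half above 75%; inactive = most below 75%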;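 note: all wells also contain fluconazole at 8 µg/ml as a sub-toxic cotreatment; 0% = median of DMSO wells and 100% = median of geldanamycin control wells; wells of about 8 µL received 7.5 nL stock; the first replicate is given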
# rRNA inh HTS = selective bacterial rRNA inhibition in E. coli. E. coli WT GFP vs humanized-ribosome RFP mutants, fluorescence, 24 h; active compounds read low; DMSO median 0, no signal -100. GFP signal change (wild-type ribosome), % (no concentration beside the values). 350,000 compounds, 1.6% hits;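 active = significant combined selectivity score with lowered wild-type GFP, culture density cut under 30%, mutant RFP and density less affected; inactive = any of these conditions unmet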; note: one replicate is shown; some compounds called inactive have numbers as strong as hits
# rRNA inh HTS OD600 = recorded beside rRNA inh HTS, whose call it bears; OD600 change, %; measured here: OD600 growth;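 optical density of the mix in the first replicate; 0 = DMSO median and -100 = no signal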
# rRNA inh HTS RFP = further read-out of rRNA inh HTS, marked with its call; RFP signal change, %; measured here: RFP humanized mutant strains;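 first replicate; 0 = DMSO median and -100 = no signal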
# An asterisk follows results filed as active; ? = inconclusive; · = no result given. An excerpt (hit frequency here may not be typical).
SMILES,Beta cell apopt,RanGTP-Impb inh,AF4-AF9 inh,Vif A3G,Bfl-1 A1 inh,T cruzi inh,Calb FLC,rRNA inh HTS,rRNA inh HTS OD600,rRNA inh HTS RFP
COc1cc(/C=C/C(=O)Nc2ccc(OC)c(S(=O)(=O)N3CCOCC3)c2)ccc1OCC#N,5,·,3.0,-1%,-0.6,·,·,-7,-14,-1.1
Cc1cc(C(=O)COC(=O)c2ccc(O)cc2)c(C)n1CCc1ccc(F)cc1,-10,-1.5,1.1,·,0.8,12,19,-15,-8,42
O=C(C1CC1)N1CCN(c2ccnc3cc(Cl)ccc23)CC1,-6,-1.7,2.1,-8%,0.0,1,7,-9,-12,-1.1
COc1ccc(C2CC(c3cccs3)=Nc3ccccc3S2)cc1 (centres undefined),1,11,15,·,-0.2,36,-1,-26*,-7.6*,0.7*
CN(C)c1ccc(C(=O)Nc2nc3c(s2)CCCC3)cc1,7,1.6,13,?,-6.2,48,14,-24,-25,14
COC(=O)CN1C(=O)S/C(=C/c2ccc(N3CCCCC3)o2)C1=O,0,-6.6,·,?,1.8,-5,8,·,·,·
Oc1ccc(N=Nc2nc(-c3ccccc3)c(-c3ccccc3)[nH]2)cc1,16,-9.5,0.9,-4%,-0.2,22,11,-19,-13,-7.4
COc1ccc2cc1Oc1ccc(cc1)CC1c3c(cc(OC)c4c3Oc3cc5c(cc3O4)CCNC5C2)CCN1C (centres undefined),·,0.1,·,·,0.3,66*,9,·,·,·
COc1ccc(C(=O)Oc2cccc(/C=N/NC(N)=S)c2)cc1,8,?,-0.6,-8%,-0.5,5,29,0,3,-1.4
Cc1ccc(-n2c(C)csc2=N)cc1,-6,0.5,·,7%,-0.1,-15,4,·,·,·
CC(NC(=O)/C(C#N)=C/c1ccc(C(=O)O)cc1)c1ccccc1 (centres undefined),-3,5.6,-1.7,·,0.8,1,-2,7,6,1.5
Cc1oc(-c2cccc(Cl)c2)nc1CS(=O)(=O)CC(=O)NCCN1CCOCC1,2,1.6,8.3,·,0.3,-5,-5,1,4,2.9
Cc1cccc(NC(=O)c2sc(C)nc2C)c1,0,-0.3,·,2%,-4.2,-8,-4,·,·,·
COc1ccc(CNC(=O)CSc2n[nH]c(N)n2)cc1,-3,?,-0.1,9%,0.1,-4,4,11,13,0.0
O=C(NNC(=O)c1sc2ccccc2c1Cl)Nc1ccc(Cl)cc1,-4,0.4,·,-3%,0.4,-9,-3,-20*,-8.3*,-2.2*
CCC(=O)N(CCc1ccccc1C)Cc1cc2ccc(C)cc2[nH]c1=O,·,-7.4,1.0,-16%,-0.7,15,19,13,8,3.0
CN1C(=O)c2cccc3c(S(=O)(=O)N(C)C)ccc1c23,-3,19*,-2.2,·,-0.5,-9,1,-6,-6,-1.4
COc1ccc(N=C2SC(CC(=O)Nc3ccc(F)cc3)C(=O)N2Cc2ccco2)cc1 (centres undefined),2,-2.0,·,10%,1.0,25,26,·,·,·
O=C(NC1CCN(Cc2ccccc2)CC1)C1CCN(S(=O)(=O)c2ccc(Cl)cc2)CC1,22,-0.6,-0.7,·,-0.5,47,-20,6,6,-0.7
CCN(CC(=O)Nc1c(F)cccc1F)C(=O)C1CCN(C(=O)c2ccc(F)cc2)CC1,-5,·,-8.9,0%,0.3,-5,-3,5,9,-0.3
NC(=O)NOCc1ccccc1,-1,1.7,-2.4,·,-0.4,-13,-4,25,22,0.6
CCN(C(=O)CSc1nnc(-c2ccc3c(c2)OCO3)o1)C1CCS(=O)(=O)C1 (centres undefined),1,·,-2.8,-2%,-0.4,·,·,17,8,0.9
CCC(C)/C(C)=N/Nc1ccc(S(N)(=O)=O)cc1[N+](=O)[O-] (centres undefined),7,-2.4,3.8,22%,1.1,7,-11,-14,-8,-1.4
Oc1ccc(CNc2ccccc2O)cc1,-10,0.7,·,18%,-0.8,-3,-16,·,·,·
Cc1cccc(NC(=O)CCNS(=O)(=O)c2ccc(Cl)cc2)c1,0,2.6,1.2,·,-0.9,-2,2,-6,-6,4.2
CCc1sc(C(=O)N2CCN(C(=O)c3ccccc3)CC2)cc1C,1,·,2.4,·,-0.5,·,·,4,2,-1.4
Cc1cc(Cl)ccc1NC(=S)NC1CCCC1,1,0.0,6.0,·,1.1,-23,-11,-18,-25,-3.8
CCN(Cc1ccncc1)Cc1ccc(OC)c(OC)c1,1,1.3,-0.4,·,0.6,-7,6,-5,1,-2.0
Oc1c(Cl)cc(Cl)cc1/C=N/NC(=S)NC1CC2C=CC1C2 (centres undefined),·,9.0,1.6,·,0.2,-3,17,-31*,-9.9*,-5.3*
C/C(=N/NC(=O)c1ccncc1)c1cc2ccc(O)cc2oc1=O,4,·,1.6,13%,-2.2,·,·,-4,6,4.5
COc1ccc2oc(C(=O)OCC(=O)N3CCCCC3)c(C)c2c1,-4,-2.7,-17,-2%,-0.1,3,7,-2,-1,1.5
CCOC(=O)N1CCC(c2cc(=O)n(-c3ccccc3)[nH]2)CC1,0,0.9,3.9,-7%,-0.5,22,1,7,10,2.7
CC[C@H](NC(=O)c1c(C)c(-c2ccccc2)nc2ccccc12)c1ccccc1,5,?,-3.4,·,0.5,29,-18,3,5,-1.1
N#CC1(NC(=O)CSc2nc3ccccc3s2)CCCCC1,-3,·,-4.2,1%,0.2,·,·,-2,-14,5.3
Cc1nnc2n1N=CC=C(c1ccccc1)S2,-14,0.8,·,3%,-0.3,-38,1,3,12,0.3
CC(C)C(NC(=O)c1cccnc1)C(=O)O (centres undefined),-3,-5.3,-1.1,1%,-0.1,-6,-2,20,13,2.4
COc1ccc(NC(=O)COC(=O)c2cc(OC)c(OC)c(OC)c2)c([N+](=O)[O-])c1,-4,1.6,1.3,18%,-0.5,5,-3,2,6,0.5
O=C(CC1SC(=Nc2ccccc2)N(CCCCO)C1=O)NCc1ccccc1 (centres undefined),-2,6.2,·,-3%,1.5,-7,3,·,·,·
Cc1ccc(NS(=O)(=O)c2ccc(-c3ccc(=O)[nH]n3)o2)cc1N(C)C,-7,0.5,0.3,·,-0.6,-7,4,2,-6,0.2
O=C(NC1CCCc2ccccc21)C1CCN(S(=O)(=O)c2cnc[nH]2)CC1 (centres undefined),·,8.0,·,1%,-0.8,0,·,·,·,·
COC(=O)Cn1c(C)c(C#N)c2ccccc21,-6,?,·,-9%,0.5,7,4,·,·,·
COC(=O)c1cc(C(=O)c2c(C)cc3ccccn23)cc([N+](=O)[O-])c1,5,0.9,23,·,0.5,18,-3,-22*,-6.4*,-4.8*
Cc1ccc(-n2nc(C(N)=O)nc2-c2ccccc2)cc1,2,-2.2,0.4,·,-0.1,-4,6,6,4,0.4
O=C(O)CCSCC(=O)Nc1c(C(=O)C2CC2)oc2ccccc12,0,4.2,·,?,-0.4,-6,24,·,·,·
COc1cc2c(cc1OC)C1(Nc3c-2c(C)nn3-c2ccccc2)C(=O)Nc2ccccc21 (centres undefined),6,·,·,-7%,0.8,·,·,0,13,4.2
CC(=O)O[C@@H]1[C@H](OC(=O)CC(C)C)c2c(ccc3ccc(=O)oc23)OC1(C)C,-3,1.9,-1.5,-5%,0.6,7,1,-30,-35,-2.8
O=C(CCC(=O)c1cccs1)OCC(=O)c1ccc(Cl)s1,-4,-2.9,·,-6%,0.2,-8,12,-18*,-3.6*,0.8*
N/C(=N\c1nc2ccccc2o1)NC(=O)c1cccc(Cl)c1,10,0.0,·,-10%,-1.3,5,3,15,0,-0.3
O=C(Cc1cccs1)N1CCN=C1SCc1cccc(F)c1,0,0.4,0.0,14%,-0.3,9,-7,-14,-16,3.4
Cc1ccc(/C=N/Nc2ccc(F)cc2)s1,0,?,0.3,-5%,0.8,21,-15,-3,3,0.5
Cc1nn(C)cc1CN(C)C(=O)c1ccc(OC2CCN(Cc3ccccn3)CC2)cc1,5,6.3,1.6,·,0.4,-4,-4,1,-3,-0.2
CN(CC(=O)Nc1ccc(F)cc1[N+](=O)[O-])Cc1ccccc1,1,-0.5,5.4,-1%,-0.5,-8,12,1,2,0.2
COc1ccc(OCCCC(=O)Nc2cc([N+](=O)[O-])ccc2C)cc1,-4,-5.1,·,-7%,-0.7,-2,-18,·,·,·
CC(C)c1nnc(NC(=O)Cc2ccc(Br)cc2)s1,1,0.0,0.6,-7%,0.3,1,5,·,·,·
O=C1/C(=C/c2cccnc2)SC(=S)N1c1ccc(F)cc1,2,-0.4,3.2,7%,-0.7,-52,0,0,16,3.3
CCNc1nc(NCC)nc(Oc2ccc(C(=O)OC)cc2)n1,3,4.5,4.7,29%,0.5,-14,2,12,11,-1.1
O=S(=O)(Nc1ccc(O)c(NS(=O)(=O)c2ccccc2)c1)c1ccccc1,·,0.2,11,·,1.0,20,-1,-2,-5,0.3
COc1ccc(OC)c(/C=N\NC(=O)CSc2nnc(CCCc3ccc(OC)c(C)c3)o2)c1,-3,-2.0,·,-2%,-0.3,-2,-3,·,·,·
CC1(C)CC(CCC(=O)NC(=S)Nc2ccccc2Cl)C(=O)O1 (centres undefined),-3,0.0,-1.0,-13%,-1.4,-17,-11,-10,-12,-4.4
CN(N)c1nc(C(F)(F)F)nc2ccccc12,-6,?,-2.3,·,0.1,-3,-2,3,4,0.3

# Brought forward from above: 2 compounds, then new ones.
SMILES,Beta cell apopt,RanGTP-Impb inh,AF4-AF9 inh,Vif A3G,Bfl-1 A1 inh,T cruzi inh,Calb FLC,rRNA inh HTS,rRNA inh HTS OD600,rRNA inh HTS RFP
CC1(C)CC(CCC(=O)NC(=S)Nc2ccccc2Cl)C(=O)O1 (centres undefined),-3,0.0,-1.0,-13%,-1.4,-17,-11,-10,-12,-4.4
CN(N)c1nc(C(F)(F)F)nc2ccccc12,-6,?,-2.3,·,0.1,-3,-2,3,4,0.3
COC(=O)c1cc(S(=O)(=O)N2CCCC(C)C2)c[nH]1 (centres undefined),-2,-0.7,-4.2,·,0.5,0,0,5,3,-0.4
CCc1ccccc1NC(=O)CN(C)C(=O)CSc1nn(-c2ccccc2)c(=S)s1,3,6.8,·,·,1.0,-3,-7,·,·,·
Cc1cc(C)n2nc(C(=O)OCC(=O)Nc3ccc4c(c3)OCO4)nc2n1,-8,-1.2,·,24%,0.4,21,-5,·,·,·
c1ccc2c3nnc4n(c-3nc2c1)CCCS4,-3,1.2,1.2,-3%,0.8,-7,20,-2,5,2.0
CC1CN(S(=O)(=O)c2cccc(C(=O)NCCc3ccc(S(N)(=O)=O)cc3)c2)CC(C)O1 (centres undefined),-4,·,5.3,-4%,-0.6,·,·,6,2,0.8
O=C(Nc1nccs1)C1CCCN1S(=O)(=O)c1ccc(F)cc1 (centres undefined),-3,?,·,3%,0.3,-35,-27,·,·,·
